Sa RN4220 lethal: S. aureus RN4220 growth inhibition. AID 1259311. actives 0.33% (n = 330,000). OD600, 16 h. inhibition, % (test concentration not listed);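 active = z-score of -3 or lower and OD600 up to 0.18 on both plates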;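 note: plate controls were untreated cells for no effect and reference antibiotic for full effect; stock transfer was 100 nL into about 80 µL; one replicate is shown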
BJeLR lethal: BJeLR cell viability loss; BJeLR (HRASV12) viability, CellTiter-Glo ATP luminescence, 48 h; reference of the scale not given here; inhibition, % (test concentration not listed); actives 0.17% (n = 300,000);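 active = replicate mean above 50%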;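 note: 50 nL library stock added to about 25 µL; numbers are from one replicate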
Mtb hypoxia inh: inhibitors of hypoxia-regulated fluorescent reporter in Mycobacterium tuberculosis; M. tuberculosis hypoxia-regulated fluorescent reporter, fluorescence; fluorescence inhibition, % (concentration not given with the values); actives 0.1% (n = 300,000); AID 1159583;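 active = 35 to 45% if threefold the growth effect, above 45% if 1.5-fold the growth effect; inactive = the rest, general growth blockers included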;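 note: wells of about 50 µL received 100 nL stock; 0% = vehicle wells and 100% = reference inhibitor wells; whole bacteria with a GFP reporter of the hypoxia response; strong numbers were not always called active; many hits fall short of the cut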
Bead autofluor: counter-screen for toxin protease inhibitors: compound fluorescence; compound autofluorescence counterscreen, microsphere flow cytometry; stronger effect = higher value; fluorescence intensity (test concentration not listed); actives 3.1% (n = 360,000); AID 624483;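 active = at least 3 SD above the mean of all compounds, about 16000 in these data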;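 note: 100 nL of 1 mM stock went into each well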
Sa ugtP lethal: growth inhibition of S. aureus ugtP deletion strain | actives 0.54% (n = 330,000) | S. aureus RN4220 ugtP deletion, OD600 growth, 16 h; some inactives read as strong as hits | AID 1259309 | growth inhibition, % (no concentration beside the values);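 active = z-score under -3 and OD600 up to 0.15 on both plates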;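 note: plate controls were untreated wells for no effect and antibiotic for full effect; wells of about 80 µL received 100 nL stock; the first replicate is given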
PrP 5UTR inh: inhibition of PrP 5' UTR reporter expression. inhibition, % (test concentration not listed). cell-based PrP 5' UTR mRNA reporter, plate reader. actives 0.35% (n = 340,000). AID 488862;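 active = every replicate at 50% or more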;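 note: 0 = median of the neutral control wells; tested in H4 reporter cells; numbers are from one replicate; inactives centre near -14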
Mtb hypoxia inh growth: further read-out of Mtb hypoxia inh, marked with its call; growth inhibition, %; measured here: M. tuberculosis growth (absorbance);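 0% = vehicle and 100% = reference antibiotic; read after six days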
The depositor's hits bear a star; . = no result given; & = joins results of further samples.

SMILES	Sa RN4220 lethal	BJeLR lethal	Mtb hypoxia inh	Mtb hypoxia inh growth	Bead autofluor	Sa ugtP lethal	PrP 5UTR inh
CCc1cc2c(SCC(=O)NC3CCS(=O)(=O)C3)ncnc2s1 (stereo unspecified)	1.6	-8	10	-1	3307	1	-7
CCCCN=C1NN=C(c2cccc([N+](=O)[O-])c2)CS1	0.8	4	9	20	4311	-4	-21
O=C(Nc1nnc(-c2ccc(F)cc2)o1)c1ccco1	10	-7	2	3	5659	-8	-25
O=C(Nc1ccc(N2CCOCC2)cc1)C1CC(O)CN1S(=O)(=O)c1ccc(Cl)cc1 (stereo unspecified)	-2.0	3	12	15	3128	6	-29
CCOC(=O)C1=C(C)N=c2s/c(=C\c3cccn3C)c(=O)n2C1c1cccc(OC)c1OC (stereo unspecified)	.	-8	.	.	3353	.	-7
Cc1ccc(/C=C2\C(=O)NC(=O)N(CCc3ccc(F)cc3)C2=O)s1	1.3	-1	8	3	4008	0	-19
CCOc1nc(SCCOc2ccccc2)nc(N(C)C)n1	5.4	-8	15	8	3590	51	-18
COCCN1CCN(c2c(C)c(C)nc3cc(-c4cccc(OC)c4)nn23)CC1	1.6	-11	-3	2	3513	-3	-39
Cc1ccc(C(NC(=O)N2CC(C)OC(C)C2)C(Cl)Cl)cc1F (stereo unspecified)	4.7	2	4	-2	2614	0	1
CCOc1cc(C(F)(F)F)cnc1/C(N)=N/O	1.2	5	1	-2	3734	6	-22
COc1cc(/C=C2\C(=N)N3N=C(S(C)(=O)=O)SC3=NC2=O)ccc1OS(=O)(=O)c1ccc(C)cc1	6.3	2	-5	-12	4820	8	8
O=C(O)c1cccc(Sc2ccc(Br)cc2C(=O)O)c1	8.1	.	0	3	2887	0	-25
Cc1ccccc1C(=O)NNC(=S)NC(=O)c1cccnc1	14	1	-12	-9	2543	4	-16
Cc1ccc(Cl)cc1NC(=O)Cn1nc(-c2cccs2)ccc1=O	-1.5	-2	2	13	6144	4	-62
COc1cc2c(cc1OC)C(=Cc1ccc(N(C)C)cc1)C=C2	2.4	.	18	12	3812	-7	-36
COc1ccc(C2(C)NC(=O)N(CC(=O)NCCC3=CCCCC3)C2=O)cc1OC (stereo unspecified)	15	2	-1	-7	3332	7	-19
O=C(O)C1C2C=CC3(O2)C1C(=O)N1c2ccccc2COC13 (stereo unspecified)	1.4	-4	.	.	2771	-2	-5
Cc1cccc(CS(=O)(=O)Cc2ccc(C(=O)NC(C)c3ccccc3)o2)c1 (stereo unspecified)	-0.4	7	5	4	5350	2	-14
O=C(Nc1ccc2c(c1)OCO2)C1CCN(c2ccc(S(=O)(=O)N3CCOCC3)cc2)CC1	-1.0	4	0	5	11046	0	-11
COc1cc(C(=O)NCc2ccc(F)cc2)cc(Cl)c1OC	0.2	-6	6	5	2250	-3	-22
COc1ccc(-c2nc3cnccn3c2Nc2ccc3c(c2)OCO3)cc1	-7.4	1	5	16	6359	-13	-7
O=C(CCCCCn1c(=S)[nH]c2ccc(N3CCOCC3)cc2c1=O)NCc1ccc2c(c1)OCO2	-10	-1	5	-3	3830	-2	-19
CCCCNC(=O)c1onc(CSc2cccc(OC)c2)c1C(=O)O	-6.9	11	7	8	3682	-12	-5
CC(C)CC(=O)Nc1ccc2c(c1)oc1ccccc12	-8.5	7	12	5	3511	4	-132
CCOc1ccc(N2CC(C(=O)Nc3cccc(S(=O)(=O)NC4=NCCC4)c3)CC2=O)cc1 (stereo unspecified)	2.8	4	2	4	4512	10	-21
Cc1cc(/C=C2\C(=O)NN(c3ccccc3)C2=O)c(C)n1-c1ccccc1O	5.8	-16	8	-5	5609	3	-46
NC(=O)Cn1cc(C(=O)C(=O)N2CCOCC2)c2ccccc21	2.5	9	-3	1	5891	7	-6
CC[C@H](C)[C@H](NC(N)=O)C(=O)Nc1ccc2c(c1)OCO2	1.6	0	-4	11	4338	4	-5
CCN1CCN(C(c2ccc(C(F)(F)F)cc2)c2ccc3cccnc3c2O)CC1 (stereo unspecified)	14	23	14	-3	3776	37	4
CC(=O)NC(c1cc(Cl)c2ccccc2c1O)C(C)C (stereo unspecified)	11	.	4	4	3974	7	-23
Cc1ccc(S(=O)(=O)N2CCN(C(=O)N3CCOCC3)CC2)cc1C	0.8	-5	-2	-1	4030	5	-50
C/C=C/C(=O)OCC(=O)Nc1cc([N+](=O)[O-])ccc1Cl	0.6	0	-1	-6	2100	2	-3
CCN(CC(=O)NCc1ccc(F)cc1)C(=O)/C=C/c1ccc(OC)cc1	2.3	-8	-1	7	5064	12	-18
O=C(O)CCCCCNS(=O)(=O)c1cccc2c1C(=O)c1ccccc1C2=O	52	6	-6	-16	2414	48	-14
CS(=O)(=O)c1ccc2nc(NC(=O)c3cccc([N+](=O)[O-])c3)sc2c1	2.8	9	-6	-6	.	6	-25
O=C1C2CCCN2C(c2cccs2)N1c1ccccn1 (stereo unspecified)	4.3	-13	11	13	4508	7	-18
COc1ccc(S(=O)(=O)Nc2ccc(F)c(F)c2)cc1Cl	7.1	8	-3	6	9468	-16	-7
C=CCNC(=O)c1c(N)n(Cc2ccco2)c2nc3ccccc3nc12	-1.8	3	2	-4	11086	-17	-18
COc1ccc(C)cc1S(=O)(=O)N(CC(=O)Nc1cccc([N+](=O)[O-])c1)c1ccc(C)c(C)c1	-1.3	12	4	4	10590	-10	-12
CCCCCN1CC(=O)N2C(C)c3[nH]c4ccccc4c3C[C@H]2C1=O (stereo partly specified)	4.8	3	-6	14	3573	-1	-9
O=C(N/N=C/c1ccc2c(c1)OCO2)c1ccc(NC(=O)c2ccccc2Cl)cc1	.	-3	.	.	2936	.	0
O=C(c1ccco1)N1CCCC(N2CCN(c3cccc(C(F)(F)F)c3)CC2)C1 (stereo unspecified)	-3.6	-4	-4	-1	5722	-2	-8
CCOc1ccc(C=Nn2nnnc2N)cc1OCC	4.9	.	6	12	.	6	.
Cc1ccc([C@@H]2[C@@H]3C(=O)N(c4ccccc4)C(=O)[C@@H]3[C@]3(C)C(=O)N(CC4CC4)CC(=O)N23)o1	.	-4	.	.	2930	.	-16
CCN(CC)CCCn1c2c(c(SCC(=O)Nc3ccc(C)c(F)c3)nc1=O)CCC2	0.4	9	14	3	.	10	-11
CCOC(=O)/C(=N/O)C1=NC(C)(C)Cc2cc(C)c(C)cc21	.	-1	.	.	4698	.	-11
CC(=O)Nc1ccc(NC(=O)C(C)Oc2ccc(Cl)cc2Cl)cc1 (stereo unspecified)	3.5	-16	14	-1	2031	0	-14
NS(=O)(=O)c1ccc(N=C2C(=O)Nc3ccccc32)cc1	4.4	-5	4	4	4305	12	-19

Part of the list above with just Mtb hypoxia inh, Bead autofluor and PrP 5UTR inh:
structure	Mtb hypoxia inh	Bead autofluor	PrP 5UTR inh
O=C(c1ccco1)N1CCCC(N2CCN(c3cccc(C(F)(F)F)c3)CC2)C1 (stereo unspecified)	-4	5722	-8
CCOc1ccc(C=Nn2nnnc2N)cc1OCC	6	.	.
Cc1ccc([C@@H]2[C@@H]3C(=O)N(c4ccccc4)C(=O)[C@@H]3[C@]3(C)C(=O)N(CC4CC4)CC(=O)N23)o1	.	2930	-16

Next part:
SMILES	Sa RN4220 lethal	BJeLR lethal	Mtb hypoxia inh	Mtb hypoxia inh growth	Bead autofluor	Sa ugtP lethal	PrP 5UTR inh
COc1ccccc1C/C(N)=N/OC(=O)/C=C/c1ccccc1	.	-3	.	.	2482	.	4
Cc1cc(C)c(C#N)c(SCC(=O)c2cccs2)n1	5.4	2	-4	0	22840*	-5	-3
Cc1cc2oc(C(=O)Nc3c(C)n(C)n(-c4ccccc4)c3=O)c(C)c2cc1C	0.6	5	.	.	4053	6	-4
c1ccc(CCNc2nc(-c3ccccn3)cs2)cc1	1.4	20	1	-16	2718	8	-39
O=C(CC1Sc2ccccc2NC1=O)Nc1ccccc1[N+](=O)[O-] (stereo unspecified)	-0.4	-10	-1	0	2086	1	1
COc1ccc(C2C(C(=O)N3CCN(c4ccc(OC)cc4)CC3)c3ccccc3C(=O)N2C)cc1 (stereo unspecified)	5.1	-12	-2	2	9510	-5	-1
Cc1ccc(-c2nnc(SCC(=O)NCCN3C(=O)CSC3=O)n2C)cc1	9.6	.	2	4	9208	2	-5
CCCNC(=S)Nc1ccc(Br)cc1	1.8	-1	.	.	4735	-13	-24
C/C(=N\NC(=O)c1ccc2c(c1)OCO2)c1ccc(NC(=O)CCCC(=O)O)cc1	.	4	.	.	4467	.	-1
CC(=O)c1c(C)nn(C(C)CC(=O)O)c1C (stereo unspecified)	-2.3	6	.	.	2463	8	-5
CC1=C2C(=O)C3C(CC=C4CC(O)CCC43C)C2CCC12OC1CC(C)CNC1C2C (stereo unspecified)	-2.0	-1	-2	17	3941	0	-14
COc1ccc2ccccc2c1C=NNC(=O)c1sc(N)c(C#N)c1C	5.4	.	14	-2	.	-3	.
O=C(NN=Cc1ccoc1)c1cccc([N+](=O)[O-])c1	1.6	.	0	1	.	3	.
Cc1ccc(S(=O)(=O)N(C)C)cc1NC(=O)COC(=O)/C=C/c1cnc2ccccc2n1	0.8	1	1	-4	4193	9	-25
Cc1ccccc1NC(=S)Nc1ccccn1	2.0	-10	1	-5	9236	15	8
CCN(CC)S(=O)(=O)c1ccc(Cl)c(C(=O)NC(C)C(c2cccs2)N2CCCC2)c1 (stereo unspecified)	14	7	15	3	4486	5	-22
COc1ccc(-c2c(C)nn3c(-c4ccccc4)cc(C)nc23)cc1	-14	-23	2	3	6814	-10	22
O=C(NN=Cc1c[nH]c2ccccc12)c1ccc(O)cc1	-0.8	.	5	-5	.	1	.
S=c1cnc2ccccc2[nH]1	-2.4	3	9	2	2620	-6	-4
CCCNC(=O)CN(c1ccccc1)S(=O)(=O)c1ccc(OC)c(OC)c1	0.6	4	4	5	4494	6	5
COc1cc(NS(=O)(=O)c2cc(C)ccc2OC)c(OC)cc1Cl	1.7	-4	.	.	4674	-3	-10
CCOc1ccc(N2CC(NS(=O)(=O)c3cccs3)CC2=O)cc1 (stereo unspecified)	-1.4	2	1	-10	6137	4	-16
CCOc1cccc(OCCCOc2cccc3cccnc23)c1	4.2	6	-3	1	2102	-2	-27
CCCCCCC1CC(C)(/C(C)=N/NC(N)=O)OC1=O (stereo unspecified)	.	-2	.	.	18949*	.	-23
COC(=O)c1cc(S(=O)(=O)Nc2cc(OC)cc(OC)c2)cn1C	0.7	3	7	8	4257	7	-20
COc1ccc(S(=O)(=O)Nc2ccccc2OC)cc1C	9.2	7	12	11	6268	7	-13
Cc1ccc2nc(C)cc(NN=Cc3cccnc3)c2c1	6.4	.	-4	-15	.	0	.
O=C(CNC(=O)c1ccccc1)N/N=C/c1cccs1	.	-6	.	.	2387	.	-31
O=C(O)CCCC(=O)NCCCc1ccccc1	-10	5	10	4	2620	0	-12
Cc1ccc(S(=O)(=O)c2c(N)n(N=Cc3ccco3)c3nc4ccccc4nc23)cc1	10	.	-2	1	.	0	.
C[C@@H](CN1C(=O)C(=O)NC[C@@H]1C)NC(=O)CC12CC3CC(CC(C3)C1)C2	.	10	.	.	2860	.	-22
O=C(COc1ccc(S(=O)(=O)NCc2ccccc2)cc1Cl)NCc1ccccn1	5.6	1	15	4	2862	7	-19
Cc1ccc(NC(=O)COC(=O)C2CC2(Cl)Cl)cc1C (stereo unspecified)	4.4	-5	4	0	3285	6	-6
Cc1cnc(C(=O)OCC(=O)NCc2ccc(Cl)cc2)cn1	2.6	.	5	4	6004	1	-9
COc1cc(NC(=O)c2cc(C)on2)cc(C(=O)Nc2cccc(C(F)(F)F)c2)c1	.	-1	.	.	3728&3880	.	-15
CON=Cc1c(-c2ccccc2)nn(C)c1Cl	1.7	.	7	-3	.	4	.
COc1ccc(/C=c2/sc3nc(-c4ccccc4)c(-c4ccccc4)n3c2=O)cc1	.	6	.	.	2381	.	-8
Cc1ccc(C(=O)/C=C/c2ccc(-c3ccc(C)cc3)o2)cc1	3.4	-8	13	0	2666	3	-8
CC(C)CC1(C)NC(=O)NC1=O (stereo unspecified)	2.1	-1	.	.	4906	2	0

Screening data: PubChem BioAssay, several laboratories
